Screening results from PubChem.
D2 potentiator – human D2 receptor positive allosteric modulation; P14416; DiscoveRx D2 beta-arrestin cells, luminescence, 90 min; 100% = 57 uM dopamine signal; potentiation, % (test concentration not listed); actives 0.23% (n = 360,000); AID 624464; active = potentiation of 50% or more; inconclusive = 30% to 50%; inactive = 30% or less;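 note: compound concentration not given in the record; tested on top of an EC20 dose of dopamine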
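D2 cells co-treated with compound plus 50 nM dopamine (EC20) for 90 min at 37 deg C to detect potentiation. Beta-arrestin recruitment was read as enzyme-fragment luminescence after 1 h at ambient temperature. Full response was set by 57 uM dopamine.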
CtBP-E1A inh – inhibitors of CtBP/E1A interaction; AID 651724; AlphaScreen GST-E1A/His-CtBP binding, 1536-well; active compounds read low; control for the full effect not named in the record; actives 0.49% (n = 340,000); activity change, % (test concentration not listed); in the data active means activity change below about -65%; inconclusive means about -30% to -65%; inactive means above about -30%; note: % is set by controls: 0 for no effect and ±100 for the full control effect
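AlphaScreen with 125 nM GST-E1A and 125 nM His-CtBP (5X stocks) in Tris pH 8.0, 300 mM NaCl, BSA, Tween 20, TCEP. Compounds preincubated 2 h at 37 deg C, then glutathione donor/nickel acceptor beads added for 1 h at 37 deg C in dark.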
Six1-Eya2 blk – inhibitors of human Six1/Eya2 interaction. Q15475+O00167. AlphaScreen GST-Six1/His-Eya2 binding, biochemical; active compounds read low; control for the full effect not named in the record. activity change, % (test concentration not listed). actives 0.56% (n = 360,000). AID 651725; in the data active = activity change below about -65%; inconclusive = about -30% to -65%; inactive = above about -30%; note: % is set by controls: 0 for no effect and ±100 for the full control effect
Target sequence (O00167 whole entry, looked up): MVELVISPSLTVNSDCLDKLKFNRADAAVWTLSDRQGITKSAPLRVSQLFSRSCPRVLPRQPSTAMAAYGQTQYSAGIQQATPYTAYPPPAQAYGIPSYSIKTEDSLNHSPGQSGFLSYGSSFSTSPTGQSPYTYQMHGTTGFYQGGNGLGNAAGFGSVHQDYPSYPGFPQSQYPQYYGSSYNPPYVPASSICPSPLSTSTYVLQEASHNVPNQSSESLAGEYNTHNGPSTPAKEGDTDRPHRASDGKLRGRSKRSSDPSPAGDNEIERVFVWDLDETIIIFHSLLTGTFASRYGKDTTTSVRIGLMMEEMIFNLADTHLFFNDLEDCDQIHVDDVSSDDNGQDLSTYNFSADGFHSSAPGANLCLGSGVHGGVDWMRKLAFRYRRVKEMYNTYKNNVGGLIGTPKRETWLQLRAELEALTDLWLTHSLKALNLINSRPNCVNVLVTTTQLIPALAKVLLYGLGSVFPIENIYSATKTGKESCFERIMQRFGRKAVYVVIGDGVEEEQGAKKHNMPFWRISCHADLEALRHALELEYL
Target sequence (Q15475 whole entry, looked up): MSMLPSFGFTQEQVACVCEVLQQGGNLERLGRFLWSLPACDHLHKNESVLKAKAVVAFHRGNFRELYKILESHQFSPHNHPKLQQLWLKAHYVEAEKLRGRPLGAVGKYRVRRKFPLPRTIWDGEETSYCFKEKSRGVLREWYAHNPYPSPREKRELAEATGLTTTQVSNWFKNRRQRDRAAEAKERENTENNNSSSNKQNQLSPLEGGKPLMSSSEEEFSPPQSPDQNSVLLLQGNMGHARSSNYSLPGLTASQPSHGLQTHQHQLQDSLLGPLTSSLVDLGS
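Homogeneous AlphaScreen proximity assay pairing GST-Six1 with His-tagged Eya2 (added as 5X mix: 250 nM and 500 nM) in 50 mM Tris pH 8.0, 300 mM NaCl, 1 mM TCEP. Glutathione donor and nickel acceptor beads; 1 h, 37 °C, dark.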
gsp agonist – activates gsp, the McCune-Albright syndrome mutation; gsp mutant cells, cAMP HTRF, 30 min; control for the full effect not named in the record; Potency, µM (doses to about 76.9 µM), for the others: at the highest dose activation (cAMP increase), most hits filed as activators; AID 624287; actives 0.13% (n = 340,000); active = well fitted activation curve with a large enough effect; inconclusive = small, poorly fitted or top-dose-only effect, or another doubt; inactive = no such curve, though single readings can be large or run the other way; cell line not stated here;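 note: phosphodiesterase inhibitor Ro 20-1724 added with compounds to block cAMP breakdown; potency is the fitted concentration of half-maximal effect; nearly all actives have a fitted effect of over 60% in size; about a fifth of the inactives were tested at one dose only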
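Cells in DMEM/10% FBS with G418 were pretreated with compounds in DMSO plus […] (300 uM stock) for 30 min at 37C. cAMP was measured by HTRF (cAMP-d2 plus anti-cAMP antibody-K) after 30 min at room temperature.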
D2 ag – agonists of human D2 dopamine receptor (beta-arrestin); P14416; DiscoveRx PathHunter D2 beta-arrestin, luminescence, 90 min; 100% = 57 uM dopamine signal; activation, % (test concentration not listed); actives 0.084% (n = 360,000); AID 624465; in the data active = activation above about 40%; inconclusive = about 15% to 40%; inactive = below about 15%; note: compound concentration not given in the record; the text of the record calls up to 30% inactive
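Agonist mode: compounds alone added to overnight-plated D2 PathHunter cells for 90 min at 37 C, with 57 uM final dopamine (EC100) defining full response. Beta-arrestin recruitment detected by chemiluminescent reagent, read after 1 h at ambient temperature.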
gsp antagonist – antagonists of gsp mutant (McCune-Albright syndrome) | gsp-mutant cells, cAMP HTRF, 30 min; control for the full effect not named in the record | Potency, µM (highest dose often 76.9 µM), inactives show at the top dose activity change, negative = inhibition, usual class: inhibitors | actives 0.4% (n = 340,000); active = falling curve of any shape with a large fitted effect; inconclusive = falling curve, mostly with a smaller effect; inactive = flat or rising curve; cell line not stated here;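 note: intracellular cAMP measured with PDE inhibitor Ro 20-1724 present during compound exposure; potency is the fitted concentration of half-maximal effect; % is set by controls: 0 for no effect and ±100 for the full control effect; nearly all actives have a fitted effect of over 65% in size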
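HTRF cAMP measurement after 30 min RT detection following 30 min, 37C compound treatment alongside […] (added as 300 uM solution) in G418-selected cells seeded at 2000/well and grown 16–24 h.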
* marks the source's active call; other numbers are inactive results; ? = inconclusive; nt = not tested or not shown; [ ] = dose if it differs, or a comment.

The opening 4 compounds as a preview:
compound,D2 potentiator,CtBP-E1A inh,Six1-Eya2 blk,gsp agonist,D2 ag,gsp antagonist
NC(=O)c1nsc(C(=O)N(c2cccc(F)c2)C(C(=O)NCC2CCCO2)c2c[nH]c3ccccc23)c1N (stereo not given),-8.9,-4.1,3.1,16.0%,0.0,-25.3%
CCCSc1nc2c(cnn2-c2ccc(F)cc2)c(=O)[nH]1,-7.7,-3.3,0.1,?,-1.4,7.2%
COc1ccc(NC(=O)CC2C(=O)NCCN2C(=O)c2ccccc2)cc1 (stereo not given),-0.7,9.8,3.6,25.6%,1.9,6.9%
COc1ccc2c(c1)C(C)CC(C)(C)N2C(=O)NC1CCCCC1 (stereo not given),5.4,0.0,-4.7,-6.5%,5.9,5.2%

The whole of this part, repeating the preview:
compound,D2 potentiator,CtBP-E1A inh,Six1-Eya2 blk,gsp agonist,D2 ag,gsp antagonist
NC(=O)c1nsc(C(=O)N(c2cccc(F)c2)C(C(=O)NCC2CCCO2)c2c[nH]c3ccccc23)c1N (stereo not given),-8.9,-4.1,3.1,16.0%,0.0,-25.3%
CCCSc1nc2c(cnn2-c2ccc(F)cc2)c(=O)[nH]1,-7.7,-3.3,0.1,?,-1.4,7.2%
COc1ccc(NC(=O)CC2C(=O)NCCN2C(=O)c2ccccc2)cc1 (stereo not given),-0.7,9.8,3.6,25.6%,1.9,6.9%
COc1ccc2c(c1)C(C)CC(C)(C)N2C(=O)NC1CCCCC1 (stereo not given),5.4,0.0,-4.7,-6.5%,5.9,5.2%
O=C(Nc1nccs1)c1ccc(Cl)nc1,1.7,5.7,3.5,?,3.5,2.6%
CSc1ccccc1C(=O)NC1CC2CCC1C2 (stereo not given),-28.6,7.4,-0.5,-26.7%,2.2,4.4%
O=C(Cc1ccc([N+](=O)[O-])cc1)N1CCN=C1SCc1ccccc1,-7.1,2.3,-7.8,-38.0%[inhibitor],1.6,3.5%
COc1cc(/C=N/N2CCN(c3ccccc3)CC2)cc(OC)c1OC(C)=O,-15.7,?,?,-9.5%,7.0,31.6µM*
CCC(C)c1ccc(NC(=O)CC(C)=O)cc1 (stereo not given),-5.6,3.6,0.0,4.2%,-3.6,8.4%
COc1ccc2nc(-n3c(O)c(C4=c5ccccc5=NC4=O)[nH]c3=S)sc2c1,-35.9,30.4,?,-0.8%,-14.4,?
COc1cc(/C=N/NC(=O)c2nc(-c3ccccc3)n(-c3ccccc3)n2)ccc1O,-19.2,?,?,-3.6%,-1.2,?
CCCOc1ccc(C(=O)CCNc2ccc(C)c(Cl)c2)cc1,-18.3,-0.2,3.1,-2.8%,2.0,-8.1%
CC(=O)Oc1ccc2c(c1)C(=O)CCCCCC(=O)O2,-11.1,0.6,-9.7,-26.7%,10.5,nt
Cc1ccc(C(=O)N(CN2CCCC2=O)c2ccccc2)cc1,6.6,-0.2,3.5,-1.9%[15.4 µM],1.8,-0.2%
O=C(Cc1cccc(NC(=O)C2CCN(C(=O)C3CC3)CC2)c1)Nc1cccc(C(=O)N2CCCCC2)c1,-3.4,2.3,-1.9,nt,-5.5,-1.3%
COc1cccc(CNC(=O)CCC2CCCN(C(=O)c3cc4ccccc4o3)C2)c1 (stereo not given),0.6,-6.9,-1.8,4.3%,0.4,?
COc1ccc2c(c1OC)C(=O)N1c3ccccc3C(=O)N(c3ccccc3)C21 (stereo not given),18.4,-5.9,-11.2,-30.9%[inhibitor],2.1,-26.9%
O=C(Nc1ccc([N+](=O)[O-])cc1)c1cncc(Br)c1,-8.9,nt,-2.4,13.4%,2.0,-15.7%
COc1c(C)cc(C(O)c2ncc(-c3ccc(Cl)cc3)[nH]2)cc1C (stereo not given),-5.8,-28.6,-15.3,nt,12.0,nt
CC(=O)n1cc(C2C(=O)CC(C)(C)CC2=O)c2ccccc21,-6.3,7.6,3.3,?,1.5,-1.2%
Cc1ccccc1-c1nc(CS(=O)CC(=O)NCc2ccccc2)c(C)o1 (stereo not given),-10.7,1.3,1.0,17.0%,-0.9,-4.5%
Cc1cc(N)n(-c2ccc(S(N)(=O)=O)cc2[N+](=O)[O-])n1,2.9,5.7,9.7,25.0%[15.4 µM],0.9,nt
COc1cc(C(=O)NC2CCN(C)CC2)ccc1Nc1ncc2c(n1)N(C1CCCCC1)CCC(=O)N2C,-13.0,-2.0,-4.7,nt,-3.0,5.8%
Cc1onc(-c2c(F)cccc2Cl)c1C(=O)NCc1ccc(S(N)(=O)=O)cc1,1.0,10.5,2.8,?,4.8,8.5%
COc1ccc(N2CCN(C3CCCN(C(=O)c4cccc(C)n4)C3)CC2)cc1 (stereo not given),-24.4,0.0,22.6,-4.7%,-3.8,-5.3%
O=C(CCN1C(=O)C2C3CCC(C3)C2C1=O)Nc1ccc(Cl)cc1Cl (stereo not given),-3.7,0.0,2.5,-0.7%[15.4 µM],0.3,7.5%
O=C(c1cc2ccccc2c(=O)o1)N1CCCc2ccccc21,3.5,5.1,-0.7,7.5%,-1.2,-7.6%
COc1cccc(-c2nc(CS(=O)(=O)c3ccccc3)no2)c1,-14.4,11.3,9.9,-31.5%[inhibitor],-1.9,3.7%
COc1ccccc1NC(=O)c1cc2ccccc2o/c1=N\O,21.5,-22.9,-0.5,-2.3%,-1.9,-6.4%
COc1ccc(S(=O)(=O)Nc2ccc3c(c2)C(=O)N([C@@H](C)CO)C[C@@H](C)[C@H](CN(C)C(=O)CCCN(C)C)OCCCC[C@H](C)O3)cc1,0.5,-0.1,-0.3,-74.5%[inhibitor],-4.6,nt
COc1cccc(CNC(=O)c2ccc(Cl)c(NC3=NC4CS(=O)(=O)CC4S3)c2)c1 (stereo not given),0.6,1.0,1.7,2.7%,-2.0,15.0%
O=C(NCc1ccco1)C1CCCN(S(=O)(=O)c2cccc3nonc23)C1 (stereo not given),2.6,0.0,0.6,-36.1%[inhibitor],-0.5,-9.7%
CCc1ccc(-c2nc(CS(=O)CC(=O)NCCN3CCCCCC3)c(C)o2)cc1 (stereo not given),-19.4,-2.4,-0.4,-12.6%,-2.7,21.3%
Cc1nnc(C)c2c(C)n(-c3ccccc3N)c(C)c12,-1.4,-5.3,-16.8,?,5.6,0.5%
CC(=O)Nn1cnc2c(c1=O)C1(CCCCC1)Cc1ccccc1-2,9.8,4.5,-1.8,3.8%,-0.6,-16.8%
O=C(CSc1nc2ccc([N+](=O)[O-])cc2[nH]1)c1ccc(Cl)cc1,-9.0,6.0,-5.0,-14.9%,-1.9,-81.9%
CN(C)/C=C/C(=O)c1nn(-c2ccc(F)cc2)ccc1=O,-17.9,nt,1.0,10.3%,-2.1,4.4%
CCC(=O)NCc1nc2ccccc2n1Cc1ccccc1F,-7.8,-1.8,-0.8,4.1%,-0.5,6.3%
COc1cc(/C=N/NC(=O)c2csc3c2CCCC3)ccc1OCCN1CCOCC1,18.8,-5.3,3.0,-20.8%,-3.5,-13.5%
C[C@@H]1CCCCO[C@@H](CN(C)Cc2ccncc2)[C@@H](C)CN([C@H](C)CO)C(=O)c2cc(NC(=O)c3ccccc3)ccc2O1,-3.3,0.7,4.5,0.1%,-8.1,nt

Record cards, as listed above. Order of values: D2 potentiator	CtBP-E1A inh	Six1-Eya2 blk	gsp agonist	D2 ag	gsp antagonist
COc1cccc(-c2nc(CS(=O)(=O)c3ccccc3)no2)c1 in the list: -14.4	11.3	9.9	-31.5%[inhibitor]	-1.9	3.7%
O=C(NCc1ccco1)C1CCCN(S(=O)(=O)c2cccc3nonc23)C1 (stereo not given) in the list: 2.6	0.0	0.6	-36.1%[inhibitor]	-0.5	-9.7%
CN(C)/C=C/C(=O)c1nn(-c2ccc(F)cc2)ccc1=O in the list: -17.9	nt	1.0	10.3%	-2.1	4.4%
Cc1cc(N)n(-c2ccc(S(N)(=O)=O)cc2[N+](=O)[O-])n1 in the list: 2.9	5.7	9.7	25.0%[15.4 µM]	0.9	nt
COc1ccccc1NC(=O)c1cc2ccccc2o/c1=N\O in the list: 21.5	-22.9	-0.5	-2.3%	-1.9	-6.4%

The listing continues.
compound,D2 potentiator,CtBP-E1A inh,Six1-Eya2 blk,gsp agonist,D2 ag,gsp antagonist
COc1ccccc1NC(=O)CCSc1nnc(-c2ccco2)o1,-2.7,5.4,6.4,17.6%[15.4 µM],-2.9,-6.5%
CC(c1nc2ccccc2n1Cc1ccccc1)N1CCCCC1 (stereo not given),-19.6,-2.6,6.9,-26.0%[15.4 µM],0.0,0.1%
Clc1ccc(OCCOCCNCc2ccccc2)cc1Cl,-7.3,nt,4.2,-2.3%,-6.4,8.4%
COc1cccc(C(=O)N(CN2CCCC2=O)c2cccc(Cl)c2)c1OC,-12.6,-0.2,10.0,?,-1.0,-0.3%
Cc1cc(Nc2ccc(Cl)cc2)n(-c2ccccc2)n1,-4.7,18.7,2.5,0.9%,-0.8,-1.8%[15.4 µM]
COc1ccc(-c2c(C#N)cnc(C)c2C)c(O)c1OC,-11.3,-4.8,-1.7,27.9%,-1.9,nt
COc1ccccc1Cn1c(=S)[nH]c2cc(C(=O)N3CC(C)CC(C)C3)ccc2c1=O (stereo not given),-14.7,-3.0,13.3,-36.9%[inhibitor],-4.5,nt
CC(=O)Oc1ccc(N2C(=O)C3C4C=CC(CO)(O4)C3C2=O)cc1 (stereo not given),-4.1,-0.2,-12.8,-14.6%,1.3,-0.4%
O=C(NCc1cccnc1)C1CC(c2ccc(Cl)c(Cl)c2)=NO1 (stereo not given),19.5,nt,-1.5,2.0%,2.1,9.3%
Oc1c(C=Nc2cccnc2)sc2ccccc12,-2.4,-3.0,-6.8,-11.5%,2.1,-24.2%
CC(=O)c1c(COC(=O)c2ccc(F)cc2)nc2ccccc2[n+]1[O-],-3.2,4.4,2.2,15.3%[15.4 µM],1.1,-10.0%
CCN(CC)C(=S)SCC(=O)Nc1ccc(S(N)(=O)=O)cc1,-4.8,1.7,-5.5,?,-4.2,5.3%

3 entries out of the list, ordered by formula weight, ascending.
compound,D2 potentiator,CtBP-E1A inh,Six1-Eya2 blk,gsp agonist,D2 ag,gsp antagonist
Oc1c(C=Nc2cccnc2)sc2ccccc12,-2.4,-3.0,-6.8,-11.5%,2.1,-24.2%
CC(=O)c1c(COC(=O)c2ccc(F)cc2)nc2ccccc2[n+]1[O-],-3.2,4.4,2.2,15.3%[15.4 µM],1.1,-10.0%
COc1ccccc1NC(=O)CCSc1nnc(-c2ccco2)o1,-2.7,5.4,6.4,17.6%[15.4 µM],-2.9,-6.5%
